Screens from PubChem BioAssay.
Env fusion inh: blocks HIV Env-driven cell-cell fusion | HeLa-JRFL Env/CEM21 cell fusion, luciferase | inhibition, % at 12.3 µM | 1.1% of 360,000 active;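 active means mean replicate inhibition score of at least 50 and every replicate individually at or above 50; inconclusive means only one of the two criteria met; inactive means mean below 50 and not all replicates reaching 50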;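 further: 0% = plate neutral controls and 100% = maraviroc near 300 nM; one replicate is shown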
An asterisk follows results filed as active; ? = inconclusive; [ ] = another dose, or the depositor's remark.

structure	Env fusion inh
CO[C@@H]1CN(C)C(=O)c2cc(NS(C)(=O)=O)ccc2OC[C@H](C)N(C(=O)NC(C)C)C[C@@H]1C	-6[16.7 µM]
NC(=O)c1ncn([C@@H]2O[C@H](C(=O)N[C@H](Cc3c[nH]c4ccccc34)C(=O)N3CCN(C(=O)C4CC4)CC3)[C@@H](O)[C@H]2O)n1	-1
Cc1noc(C)c1S(=O)(=O)N(C)C[C@H]1Oc2c(NC(=O)C3CCOCC3)cccc2C(=O)N([C@@H](C)CO)C[C@H]1C	-73[16.7 µM]
COc1ccc2c3c([nH]c2c1)[C@@H](CO)N(C(=O)c1cccnc1)CC31CCN(C(=O)Nc2cccc(F)c2)CC1	-3[16.7 µM]
COCC(=O)N(C)C[C@@H]1Oc2cc(C#CC3CCCC3)ccc2S(=O)(=O)N([C@H](C)CO)C[C@H]1C	14[16.7 µM]
CCS(=O)(=O)Nc1ccc2c(c1)C(=O)N(C)C[C@H](OC)[C@@H](C)CN(C(=O)c1ccc3c(c1)OCO3)[C@H](C)CO2	-3[16.7 µM]
COc1ccccc1CNC(=O)C[C@H]1CC[C@H]2[C@@H](COC[C@H](O)CN2C(=O)Nc2ccc(F)cc2)O1	-2[16.7 µM]
CN1C(=O)c2cc(NC(=O)c3ccc(F)c(F)c3)ccc2OC[C@@H]2O[C@H](CC(=O)N3CCOCC3)CC[C@@H]21	10[16.7 µM]
COc1cccc(S(=O)(=O)Nc2ccc3c(c2)[C@@H]2C[C@@H](CC(=O)NCCc4ccccc4)O[C@H](CO)[C@@H]2O3)c1	-7[16.7 µM]
C=C1CC(c2ccc(-c3ccccc3)cc2)OC1=O (stereo not given)	-20[16.7 µM]
C[C@H]1CN([C@@H](C)CO)S(=O)(=O)c2ccc(C#CCN(C)C)cc2O[C@@H]1CN(C)S(=O)(=O)c1cccc(F)c1	-6[16.7 µM]
S=C1NCCN1c1ccc(Cl)cc1	-1
COc1ccc(CN2C[C@H](O)COC[C@H]3O[C@@H](CC(=O)N(C)C)CC[C@@H]32)cc1	-11[16.7 µM]
COc1cccc(/C=C/C=O)c1	-10[16.7 µM]
C[C@H](CO)N1C[C@H](C)[C@H](CN(C)Cc2ccc(-c3ccccc3)cc2)Oc2ccc(NS(=O)(=O)c3ccc(F)cc3)cc2CC1=O	1[16.7 µM]
C[C@H](NC(=O)C[C@@H]1CC[C@H]2[C@@H](COC[C@H](O)CN2C(=O)Nc2cccc(Cl)c2)O1)c1ccccc1	-22[16.7 µM]
C[C@H]1CN([C@@H](C)CO)C(=O)c2cc(-c3cccc(C(=O)N(C)C)c3)cnc2O[C@H]1CN(C)S(=O)(=O)c1ccccc1	-10[16.7 µM]
O=C(C[C@H]1C=C[C@@H](NC(=O)c2cccc(F)c2)[C@H](CO)O1)Nc1nccs1	1[16.7 µM]
COCCNC(=O)C[C@@H]1C[C@@H]2c3cc(NC(=O)CN(C)C)ccc3O[C@@H]2[C@@H](CO)O1	-6[16.7 µM]
COc1cccc(S(=O)(=O)N2C[C@H](O)COC[C@H]3O[C@H](CC(=O)Nc4ccccc4)CC[C@@H]32)c1	0[16.7 µM]
COc1cc(CN2CC3(CN(S(=O)(=O)c4cn(C)cn4)C3)c3c(n(C)c4cc(OC)ccc34)[C@H]2CO)cc(OC)c1	-61[16.7 µM]
C[C@@H]1CN([C@@H](C)CO)C(=O)c2cc(NC(=O)CCCN(C)C)ccc2O[C@H]1CN(C)Cc1ccc(C(=O)O)cc1	-3[16.7 µM]
C[C@@H]1CN([C@@H](C)CO)C(=O)c2cc(C#C[C@@H](C)O)cnc2O[C@H]1CN(C)CC1CCOCC1	0[16.7 µM]
CN1C(=O)c2cc(NC(=O)c3ccccc3Cl)ccc2OC[C@@H]2O[C@H](CC(=O)NCC(F)(F)F)CC[C@@H]21	-2[16.7 µM]
COc1ccccc1NC(=O)N[C@@H]1CC[C@@H](CCn2cc(C3(O)CCCC3)nn2)O[C@H]1CO	3[16.7 µM]
CO[C@H]1CN(C)C(=O)c2cc(NC(=O)Cc3ccccc3)ccc2OC[C@@H](C)N(C(C)=O)C[C@@H]1C	-9[16.7 µM]
C[C@H]1CN([C@@H](C)CO)C(=O)c2cc(/C=C/c3ccccc3)cnc2O[C@H]1CN(C)C(=O)C1CC1	12[16.7 µM]
COC(=O)[C@]12C[C@H](CC(=O)N3CCN(C(=O)c4ccco4)CC3)C(=O)N(CCC3=CCCCC3)C1=C[C@H](COCc1ccccc1)O[C@@H]2C	10
CCCN(C)C[C@H]1Oc2ncc(-c3ccccc3)cc2C(=O)N([C@@H](C)CO)C[C@H]1C	9[16.7 µM]
C[C@@H]1CN([C@H](C)CO)C(=O)c2c(c3ccccc3n2C)-c2ccccc2CO[C@@H]1CN(C)S(=O)(=O)Cc1ccccc1	1[16.7 µM]

The listing continues.
structure	Env fusion inh
O=C(N[C@@H]1C=C[C@@H](CC(=O)N2CCCCC2)O[C@@H]1CO)c1ccc2c(c1)OCO2	-4[16.7 µM]
Cc1nn(C)cc1NC(=O)C[C@@H]1CC[C@@H]2[C@@H](COc3ccc(NC(=O)C4CCOCC4)cc3C(=O)N2C)O1	3[16.7 µM]
CCS(=O)(=O)N1CC2(CN(C(=O)CN3CCOCC3)[C@H](CO)c3c2c2ccc(OC)cc2n3C)C1	-18[16.7 µM]
CCCN1C[C@@H](C)[C@@H](OC)CN(C)C(=O)c2cc(NC(=O)Nc3ccccc3F)ccc2OC[C@H]1C	-9[16.7 µM]
C[C@H]1CN([C@@H](C)CO)C(=O)Cc2cc(NC(=O)Nc3ccc4c(c3)OCO4)ccc2O[C@H]1CN(C)S(=O)(=O)c1ccccc1	63*[16.7 µM]
C[C@@H]1CN([C@H](C)CO)C(=O)Cc2cc(NS(=O)(=O)c3ccc(F)cc3)ccc2O[C@H]1CN(C)Cc1ccc(Cl)c(Cl)c1	-12[16.7 µM]
CN1[C@@H]2c3ccc(-c4ccc(F)cc4)c(=O)n3C[C@H]1[C@H](CO)[C@H]2C(=O)NC1CCC1	1[16.7 µM]
COC(=O)C[C@@H]1C[C@@H]2c3cc(NC(=O)Nc4ccccc4)ccc3O[C@@H]2[C@@H](CO)O1	-1[16.7 µM]
O=C(NCc1ccccc1)[C@H]1CCCN1	-26
N#C[C@@H]1[C@H](c2ccccc2-c2cccc(F)c2)[C@H](CO)N1C(=O)Nc1cc(F)ccc1F	26[16.7 µM]
COc1ccc(NC(=O)N[C@@H]2CC[C@@H](CC(=O)NC3CCC3)O[C@@H]2CO)cc1	-1[16.7 µM]
COC(=O)C[C@H]1CC[C@@H]2[C@@H](COc3ccc(NC(=O)c4cccc(Cl)c4)cc3C(=O)N2C)O1	3[16.7 µM]
C[C@H](CO)N1C[C@H](C)[C@@H](CN(C)C(=O)Nc2ccc3c(c2)OCO3)Oc2ccc(NS(=O)(=O)c3ccccc3)cc2CC1=O	-36[16.7 µM]
CO[C@@H]1CN(C)C(=O)c2cc(NC(=O)c3ccc(Oc4ccccc4)cc3)ccc2OC[C@@H](C)NC[C@@H]1C	2[16.7 µM]
COCC(=O)Nc1ccc2c(c1)[C@H]1C[C@@H](CC(=O)NCc3cccnc3)O[C@H](CO)[C@H]1O2	-3[16.7 µM]
O=C(C[C@H]1C[C@@H]2c3cc(NC(=O)c4ccc5c(c4)OCO5)ccc3O[C@@H]2[C@H](CO)O1)NC1CCCCC1	?
COc1ccc2c3c(n(C)c2c1)[C@H](CO)N(C(=O)c1ccccc1)CC31CN(C(=O)c2ccccc2)C1	-15[16.7 µM]
C[C@H]1CN([C@@H](C)CO)C(=O)c2c(c3ccccc3n2C)-c2ccccc2CO[C@H]1CN(C)C(=O)Cc1ccccc1	57*[16.7 µM]
C#CCNC(=O)C[C@H]1C[C@@]2(C(=O)OC)C(=C[C@H](C3CCCC3)O[C@@H]2C)N(CCCCCCCC)C1=O	21
O=C(N[C@H](C(=O)N1CCC[C@H]1C(=O)NC1CCCC1)C1CCCCC1)C1CC1	-11
C[C@@H]1CNCCN1c1ccc(N2CCN(Cc3ccccc3)[C@@H](C)C2)c(C#N)c1	21
CCC(=O)N(C)C[C@@H]1Oc2cc(C3=CCCCC3)ccc2S(=O)(=O)N([C@@H](C)CO)C[C@@H]1C	10[16.7 µM]
C[C@H]1CN([C@@H](C)CO)C(=O)c2ccccc2-c2ccccc2CO[C@@H]1CN(C)S(=O)(=O)c1ccccc1F	7[16.7 µM]
Cc1ccc(S(=O)(=O)N2CC3=C(c4ccccc4)CC4(C)C(=O)C(C)(C)CC4=C3C2)cc1 (stereo not given)	30
CCCN(C)C[C@@H]1Oc2cc(-c3ccccc3C)ccc2S(=O)(=O)N([C@@H](C)CO)C[C@@H]1C	-5[16.7 µM]
CN1C(=O)c2cc(NC(=O)Cc3cccs3)ccc2OC[C@@H]2O[C@@H](CC(=O)NCc3ccc(-c4ccccc4)cc3)CC[C@H]21	-427[16.7 µM]
C[C@H](CO)N1C[C@H](C)[C@H](CN(C)C(=O)Nc2ccc3c(c2)OCO3)Oc2ccc(NC(=O)Nc3ccccc3)cc2C1=O	-10[16.7 µM]
Cc1cccc(S(=O)(=O)N[C@H]2CC[C@@H](CCNC(=O)c3cnccn3)O[C@@H]2CO)c1	-17[16.7 µM]
O=C(C[C@H]1C[C@H]2c3cc(NC(=O)NC4CCCC4)ccc3O[C@H]2[C@H](CO)O1)NCc1ccccc1F	9[16.7 µM]
O=C(CSC1CCc2ccccc21)NNC(=O)Nc1ccc(Cl)cc1 (stereo not given)	15

Three compounds out of the list, ordered by count of non-hydrogen atoms, smallest number first.
structure	Env fusion inh
O=C(CSC1CCc2ccccc21)NNC(=O)Nc1ccc(Cl)cc1 (stereo not given)	15
O=C(C[C@H]1C[C@H]2c3cc(NC(=O)NC4CCCC4)ccc3O[C@H]2[C@H](CO)O1)NCc1ccccc1F	9[16.7 µM]
C[C@H](CO)N1C[C@H](C)[C@H](CN(C)C(=O)Nc2ccc3c(c2)OCO3)Oc2ccc(NC(=O)Nc3ccccc3)cc2C1=O	-10[16.7 µM]

Single values from above:
`Cc1ccc(S(=O)(=O)N2CC3=C(c4ccccc4)CC4(C)C(=O)C(C)(C)CC4=C3C2)cc1` (stereo not given) in Env fusion inh: 30
`COC(=O)C[C@@H]1C[C@@H]2c3cc(NC(=O)Nc4ccccc4)ccc3O[C@@H]2[C@@H](CO)O1` in Env fusion inh: -1[16.7 µM]
`CCCN1C[C@@H](C)[C@@H](OC)CN(C)C(=O)c2cc(NC(=O)Nc3ccccc3F)ccc2OC[C@H]1C` in Env fusion inh: -9[16.7 µM]

Next section:
structure	Env fusion inh
CO[C@H]1CN(C)C(=O)c2cc(NS(=O)(=O)c3cn(C)cn3)ccc2OC[C@H](C)N(CCC(F)(F)F)C[C@H]1C	-4[16.7 µM]
CO[C@H]1CN(C)C(=O)c2cc(NS(=O)(=O)c3cccc(F)c3)ccc2OC[C@H](C)N(C(=O)Cc2cccnc2)C[C@H]1C	-4[16.7 µM]
O=C(NCC1CCN(C(=O)C(=O)c2cccs2)CC1)c1ccc2c(c1)CCO2	5
Cc1ccc(S(=O)(=O)NC[C@H]2CC[C@@H]3[C@@H](CN3Cc3ccccc3C(=O)O)O2)cc1	-15[16.7 µM]
CC(=O)N1[C@@H]2Cn3c(ccc(-c4cccnc4)c3=O)[C@H]1[C@@H](C(=O)N1CCc3ccccc3C1)[C@@H]2CO	7[16.7 µM]
C[C@@H]1CN([C@H](C)CO)C(=O)c2cc(NC(=O)C3CCCCC3)ccc2O[C@@H](C)CCCCO[C@@H]1CN(C)C(=O)Nc1ccc2c(c1)OCO2	1[16.7 µM]
COc1ccc(NC(=O)Nc2ccc3c(c2)CC(=O)N([C@@H](C)CO)C[C@H](C)[C@H](CN(C)S(=O)(=O)c2ccccc2)O3)cc1	44[16.7 µM]
C[C@@H]1COc2cc(NCCO)ccc2S(=O)(=O)N1	8
O=C(N[C@H](Cc1ccccc1)C(=O)NCCN1CCOCC1)[C@H]1O[C@@H](n2ccc(=O)[nH]c2=O)[C@H](O)[C@@H]1O	-16
C[C@@H]1CN([C@@H](C)CO)C(=O)c2cccc(NC(=O)Nc3cccc4ccccc34)c2O[C@H]1CN(C)C(=O)NC1CCCCC1	1[16.7 µM]
COc1ccc(NC(=O)Nc2ccc3c(c2)CC(=O)N([C@H](C)CO)C[C@@H](C)[C@@H](CN(C)C(=O)NC2CCCCC2)O3)cc1	15[16.7 µM]
COc1ccc(CN(C)C[C@H]2Oc3ccc(NS(=O)(=O)c4cccs4)cc3CC(=O)N([C@H](C)CO)C[C@H]2C)cc1	-15[16.7 µM]
CCCNC(=O)C[C@H]1CC[C@@H]2[C@H](COC[C@H](O)CN2C(=O)Nc2ccc(Cl)c(Cl)c2)O1	12[16.7 µM]
O=C(C[C@H]1CC[C@@H]2NC[C@@H](O)COC[C@H]2O1)N1CCc2ccccc2C1	-11[16.7 µM]
COCC(=O)N[C@H]1C=C[C@H](CC(=O)N2CCCCC2)O[C@H]1CO	-2[16.7 µM]
O=C(Cc1c[nH]c2ccccc12)Nc1ccc(Nc2cccnc2)c(Br)c1	29
Cc1noc(C)c1NC(=O)NCC[C@@H]1CC[C@@H](NC(=O)c2ccc(F)cc2)[C@@H](CO)O1	-4[16.7 µM]
COc1ccc(C[C@H]2CCc3cnnn3COC[C@H](CC(C)C)NC2=O)cc1	-10[16.7 µM]
Cc1ccc(-c2ccc3c(c2)O[C@H](CN(C)C(=O)CC2CC2)[C@H](C)CN([C@H](C)CO)S3(=O)=O)cc1	9[16.7 µM]
C[C@H](CO)N1C[C@H](C)[C@@H](CN(C)Cc2ccncc2)Oc2ccc(NC(=O)CCN3CCOCC3)cc2CC1=O	2[16.7 µM]
C[C@@H]1CCCCO[C@@H](CN(C)Cc2ccccc2)[C@@H](C)CN([C@H](C)CO)C(=O)c2cc(NC(=O)c3ccncc3)ccc2O1	-1[16.7 µM]
COc1ccc(CNC(=O)C[C@@H]2CC[C@@H]3[C@@H](COc4ccc(NC(=O)C(C)C)cc4C(=O)N3C)O2)cc1	-7[16.7 µM]

Not all compounds are listed (hit frequency here may not be typical).
